Assay outcomes deposited in PubChem by ICCB-Longwood Screening Facility, Harvard Medical School.
BmaI1: BmaI1 acyl-homoserine lactone synthase inhibition – biochemical, fluorescence intensity, with counterscreen (AID 720554); BmaI1 enzyme assay, fluorescence intensity; hits give high values; test concentration not given here; a few actives read low; strong numbers were not always called active; inhibition, %; 12,000 tested, 0.4% active;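 active = both replicates within 2 robust z-scores of the inhibited control and a quiet counterscreen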;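 also: 0% = uninhibited enzyme and 100% = inhibited control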
BmaI1 counterscreen: further read-out of BmaI1, marked with its call; inhibition, %; measured here: counterscreen; design of the counterscreen not given here;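 first of two replicates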
* = called active by the depositor. These rows are one share of the data; count on the stated rates, not on these rows.

SMILES	BmaI1	BmaI1 counterscreen
Clc1ccc(-c2noc(CCCSc3nnnn3-c3ccccc3)n2)cc1	3.0	-4.5
CCOC(=O)C1CCCN(CC(=O)Nc2ccc(C(=O)Nc3ccccc3OC)cc2)C1 (centres undefined)	16.0	6.5
O=C(CNCc1ccccn1)NCc1ccc(Cl)cc1	-1.0	-5.0
CCN(CC)S(=O)(=O)c1cccc(-c2nnc(SC(C)C)n2-c2ccccc2)c1	11.0	3.5
Cc1ccc(NC(=O)c2c(Cl)nc3sccn23)c(S(=O)(=O)N2CCCCC2)c1	7.5	8.0
Cc1occc1-c1nnc(SCc2nnc(-c3ccc(F)cc3)o2)n1C	10.5	2.0
CSc1nc2ncc(C(=O)c3ccccc3O)cc2c(=O)[nH]1	13.0	-11.5
CC(C)n1nccc1NS(=O)(=O)c1ccccc1	20.0	10.5
CC1(C)CC2CC(C)(CN2/C=C2/CCCCC2=O)C1 (centres undefined)	17.5	6.5
CC1CCc2c(sc3[nH]c(=O)n4nc(-c5cccc(S(=O)(=O)N6CCOCC6)c5)nc4c23)C1 (centres undefined)	17.5	-8.0
N#CCC(=O)c1c[nH]c2ccccc12	-55.0	-32.5
COc1cc(-c2nnc(COc3ncnc4c(Cl)cc(Cl)cc34)o2)cc(OC)c1OC	20.0	8.0
NC(=O)c1ccccc1OCC(=O)N1N=C(c2cccs2)CC1c1cccs1 (centres undefined)	4.0	1.5
C=CCn1cnnc1SCC(=O)NCC(F)(F)F	-3.0	-4.5
Cc1ccc(-n2c(=O)/c(=C\c3ccc4c(c3)OCO4)s/c2=C(/C#N)C(=O)NCCN2CCOCC2)c(C)c1	4.0	4.5
CNC(=O)CO/N=C/c1ccc(N(C)C)cc1	-55.5	-39.0
CN1CCC(N(C)S(=O)(=O)c2ccc(N)cc2)CC1	12.0	9.5
CCOc1ccc2nc(SCC(=O)N3CCCC3=O)sc2c1	16.0	22.5
Cc1ccc(Sc2ncccc2C(=O)N2CCCCC2C(N)=O)cc1 (centres undefined)	19.5	11.5
O=C(CN1CCc2ccccc2C1)N(C1CCCCC1)C1CCS(=O)(=O)C1 (centres undefined)	2.5	2.5
COc1cccc(NC(C)C(=O)N2CC(C)OC(C)C2)c1 (centres undefined)	16.5	0.0
Nc1ccn([C@@H]2O[C@H](CO)[C@@H](O)C2O)c(=O)n1 (some centres undefined)	3.5	2.0
CCCn1c(CCC(=O)Nc2ccccc2C)nc2cc(S(=O)(=O)N3CCOCC3)ccc21	8.5	10.0
O=C(COC(=O)c1ccc2c(c1)OCCO2)Nc1cccc(Cl)c1	0.0	-3.0
Cn1nc(N2CCN(S(=O)(=O)c3ccccc3)CC2)c(=O)n(C)c1=O	-9.5	-6.5
Next section:
SMILES	BmaI1	BmaI1 counterscreen
CNC(=O)/C=C/c1ccc(S(=O)(=O)N2CCOCC2)cc1	11.0	5.0
CN(C)C(=O)CN1CCNCC1	31.5	5.5
CCOC(=O)c1oc2ccccc2c1COC(=O)c1ccccn1	19.5	11.5
Cc1ccc(-c2nnc(SCC(=O)c3ccc(C)cc3C)o2)cc1	14.0	13.5
C/C(=N\NC(=S)NC1CCCCC1)c1ccc(O)cc1	65.5	62.0
CN/C(=C\[N+](=O)[O-])NCCSCc1csc(CN(C)C)n1	1.5	11.5
Cc1cc(C(=O)COc2ncnc3ccccc23)c(C)n1C	-5.0	-7.0
O=C(Cn1c(=O)cnc2ccccc21)NC1CCCc2ccccc21 (centres undefined)	16.0	8.5
CCC(=O)Nc1ccc(C(=O)COc2ncnc3ccccc23)cc1	-4.0	-11.0
Cc1nn(-c2ccccc2)c2nc(-c3ccccc3)ccc12	2.0	-3.0
O=C(CCNC(=O)c1ccccc1Cl)NC1=NCCS1	-5.0	-2.5
CC1CC(C)CN(S(=O)(=O)c2ccc(C(=O)NCCCn3ccnc3)cc2)C1 (centres undefined)	21.0	20.0
NC(=O)CCN1CCCC1C(N)=O (centres undefined)	12.0	12.5
CCn1c(C)cc(C(=O)O)c1C	-7.5	-7.5
Cc1n[nH]c(=O)c(C#N)c1C	-0.5	10.5
Cc1cc(C(=O)COc2ncnc3sccc23)c(C)n1C	8.5	-2.0
CC(C)n1nccc1NC(=O)COC(=O)c1ccc(NC(N)=O)cc1	3.0	1.5
CN(C(=S)NCc1ccccc1)c1ccc(O)cc1	75.5	18.5
Cn1cccc1C(=O)OCc1cc(=O)n2cc(Br)ccc2n1	8.0	1.5
C=CCNC(=S)N/N=C1\C=C(C)CC(C)(C)C1	1.0	7.5
CC1CN(Cc2nc3c(Br)cc(Br)cc3c(=O)[nH]2)CC(C)O1 (centres undefined)	1.5	5.5
CCOC(=O)c1oc2ccccc2c1COC(=O)c1cccc(C#N)c1	16.5	8.5
O=C(OCC(=O)N1CCN(c2ccccc2)CC1)c1cccc(F)c1	5.0	1.5
CCc1cc2c(SCC(=O)Nc3ccc(S(=O)(=O)N4CCOCC4)cc3)ncnc2s1	16.5	13.0
C=CCn1c(C)cc(C(=O)COC(=O)Cn2[nH]c(=O)c3ccccc3c2=O)c1C	14.0	16.5

Compound profiles, as listed above:
`CCCn1c(CCC(=O)Nc2ccccc2C)nc2cc(S(=O)(=O)N3CCOCC3)ccc21` as listed: BmaI1 = 8.5; BmaI1 counterscreen = 10.0
`CCOC(=O)c1oc2ccccc2c1COC(=O)c1cccc(C#N)c1` as listed: BmaI1 = 16.5; BmaI1 counterscreen = 8.5

New compounds follow:
SMILES	BmaI1	BmaI1 counterscreen
C=CCn1c(N)c(C#N)c2nc3ccccc3nc21	10.5	3.5
O=C(Cn1c(C(F)(F)F)nc2ccccc21)NN=C1CCCC1	-11.5	-3.5
COCCn1cnc2c1c(=O)n(CC(=O)OCC(=O)NC1CCCC1)c(=O)n2Cc1ccccc1	11.0	7.5
COc1ccccc1OCC(O)CN1CCN(CC(=O)Nc2c(C)cccc2C)CC1 (centres undefined)	5.0	-0.5
CN(c1ccccn1)S(=O)(=O)c1cc(Cl)ccc1Cl	27.5	7.5
Cc1cc(C=C(C#N)C#N)c(C)n1CC(F)(F)F	8.0	1.0
COC(=O)CNC(=O)c1cccs1	-8.5	-7.5
COc1ccc(C)cc1NC(=O)COC(=O)c1sc2nc(C)[nH]c(=O)c2c1C	0.0	-5.0
COc1cc(C(=O)NC(=S)NN2CCN(C)CC2)cc(OC)c1OC	23.0	9.0
CC(NC(=O)c1ccccc1)C(=O)OCn1nnc2ccccc2c1=O (centres undefined)	9.5	11.0
CCCn1c(=O)n(CC(=O)O)c2ccccc21	14.5	2.5
COc1ccc2nc(C)cc(Oc3ccc4c(c3)OCO4)c2c1	11.5	8.5
O=C(COc1ncnc2sccc12)NCc1ccccc1	7.0	-1.0
Cc1cc(N)n(C)c(=O)c1	38.5	-9.5
CCN(CC)CCOC(=O)C(O)(c1ccccc1)c1ccccc1	6.5	-4.0
N#CC1(NC(=O)COC(=O)c2nccnc2N)CCCCC1	-14.5	-7.5
CCN(C(=O)c1ccc(-n2cnnn2)cc1)C12CC3CC(CC(C3)C1)C2	-6.5	-9.5
Cn1ccsc1=NC(=O)/C=C/c1ccc(S(=O)(=O)N2CCCCCC2)cc1	13.5	7.0
COC(=O)C1CCN(C(=O)CSc2nnc3n(-c4c(C)cccc4C)c(=O)c4ccccc4n23)CC1	11.0	-1.0
CC1(C)C2CC=C(/C=N/NC(=O)c3ccc(O)cc3)C1C2 (centres undefined)	7.5	2.0
CC(C)N(CC(=O)N1c2ccccc2CC1C)Cc1ccccc1 (centres undefined)	12.0	4.5
COc1cc(C#N)ccc1OC(=O)C(CCSC)N1C(=O)c2ccccc2C1=O (centres undefined)	7.5	3.0
COc1cccc(N=Nc2ccc3cccnc3c2O)c1	26.5	-8.5
Cc1[nH]c(=O)c(C#N)c(C)c1CCC(=O)N1CCCSC1=Nc1ccccc1C(C)C	5.0	1.0
CN1C(=O)c2ccc(NC(=O)/C=C/c3ccc(Br)o3)cc2C1=O	7.5	2.0

Taken from the listing, 30 compounds:
SMILES	BmaI1	BmaI1 counterscreen
CC1CN(Cc2nc3c(Br)cc(Br)cc3c(=O)[nH]2)CC(C)O1 (centres undefined)	1.5	5.5
CCOC(=O)c1oc2ccccc2c1COC(=O)c1cccc(C#N)c1	16.5	8.5
O=C(OCC(=O)N1CCN(c2ccccc2)CC1)c1cccc(F)c1	5.0	1.5
CCc1cc2c(SCC(=O)Nc3ccc(S(=O)(=O)N4CCOCC4)cc3)ncnc2s1	16.5	13.0
C=CCn1c(C)cc(C(=O)COC(=O)Cn2[nH]c(=O)c3ccccc3c2=O)c1C	14.0	16.5
C=CCn1c(N)c(C#N)c2nc3ccccc3nc21	10.5	3.5
O=C(Cn1c(C(F)(F)F)nc2ccccc21)NN=C1CCCC1	-11.5	-3.5
COCCn1cnc2c1c(=O)n(CC(=O)OCC(=O)NC1CCCC1)c(=O)n2Cc1ccccc1	11.0	7.5
COc1ccccc1OCC(O)CN1CCN(CC(=O)Nc2c(C)cccc2C)CC1 (centres undefined)	5.0	-0.5
CN(c1ccccn1)S(=O)(=O)c1cc(Cl)ccc1Cl	27.5	7.5
Cc1cc(C=C(C#N)C#N)c(C)n1CC(F)(F)F	8.0	1.0
COC(=O)CNC(=O)c1cccs1	-8.5	-7.5
COc1ccc(C)cc1NC(=O)COC(=O)c1sc2nc(C)[nH]c(=O)c2c1C	0.0	-5.0
COc1cc(C(=O)NC(=S)NN2CCN(C)CC2)cc(OC)c1OC	23.0	9.0
CC(NC(=O)c1ccccc1)C(=O)OCn1nnc2ccccc2c1=O (centres undefined)	9.5	11.0
CCCn1c(=O)n(CC(=O)O)c2ccccc21	14.5	2.5
COc1ccc2nc(C)cc(Oc3ccc4c(c3)OCO4)c2c1	11.5	8.5
O=C(COc1ncnc2sccc12)NCc1ccccc1	7.0	-1.0
Cc1cc(N)n(C)c(=O)c1	38.5	-9.5
CCN(CC)CCOC(=O)C(O)(c1ccccc1)c1ccccc1	6.5	-4.0
N#CC1(NC(=O)COC(=O)c2nccnc2N)CCCCC1	-14.5	-7.5
CCN(C(=O)c1ccc(-n2cnnn2)cc1)C12CC3CC(CC(C3)C1)C2	-6.5	-9.5
Cn1ccsc1=NC(=O)/C=C/c1ccc(S(=O)(=O)N2CCCCCC2)cc1	13.5	7.0
COC(=O)C1CCN(C(=O)CSc2nnc3n(-c4c(C)cccc4C)c(=O)c4ccccc4n23)CC1	11.0	-1.0
CC1(C)C2CC=C(/C=N/NC(=O)c3ccc(O)cc3)C1C2 (centres undefined)	7.5	2.0
CC(C)N(CC(=O)N1c2ccccc2CC1C)Cc1ccccc1 (centres undefined)	12.0	4.5
COc1cc(C#N)ccc1OC(=O)C(CCSC)N1C(=O)c2ccccc2C1=O (centres undefined)	7.5	3.0
COc1cccc(N=Nc2ccc3cccnc3c2O)c1	26.5	-8.5
Cc1[nH]c(=O)c(C#N)c(C)c1CCC(=O)N1CCCSC1=Nc1ccccc1C(C)C	5.0	1.0
CN1C(=O)c2ccc(NC(=O)/C=C/c3ccc(Br)o3)cc2C1=O	7.5	2.0

Going on with the list:
SMILES	BmaI1	BmaI1 counterscreen
COc1cc(C)cc(CN2CCN(S(=O)(=O)c3ccccc3C#N)CC2)c1O	75.0	29.5
CC(SCc1nc2sc3c(c2c(=O)[nH]1)CCCC3)C(=O)NCc1ccco1 (centres undefined)	29.5	0.0
O=C(/C=C/c1cccs1)OCc1csc(-c2ccccc2)n1	0.5	0.0
O=C(CSc1ncccc1C(=O)N1CCc2ccccc2C1)Nc1ccc2c(c1)OCO2	12.5	9.5
Cc1nc(N2CCN(CC(=O)NC3CC3)CC2)c2c(-c3ccccc3)csc2n1	7.5	2.5
CC(C)(C)c1ccc(C2NC(=O)c3ccccc3N2)cc1 (centres undefined)	10.0	6.0
CC(=O)N1CC(=O)N=C1SCC(=O)Nc1ccc(S(N)(=O)=O)cc1	-0.5	-3.5
Cc1[nH]c2ccccc2c1C(=O)C(C)OC(=O)c1cccc(N(C)C)c1 (centres undefined)	24.5	12.0
O=c1c2ccccc2nnn1CN1CCN(S(=O)(=O)c2cccs2)CC1	-2.0	4.5
CCOC(=O)C1=C(C)NC(C)=C(C(=O)OCC)C1C(=O)OCC(=O)NC1CCCCCC1	5.5	1.5
CN(C)S(=O)(=O)c1ccc(SCC(=O)NC(C)(C)C)nc1	36.0	4.0
CN(CC(=O)NC(=O)Nc1ccc2c(c1)OCCO2)C1CCCCC1	17.5	-1.5
O=C(CSCc1nc2scc(-c3cccs3)c2c(=O)[nH]1)Nc1nnc(C2CC2)s1	1.5	-7.5
CN(c1nc2ccccc2nc1NS(=O)(=O)c1cccs1)C1CCS(=O)(=O)C1 (centres undefined)	7.5	1.5
CN(Cc1nccn1C)c1ncnc2sc3c(c12)CCCC3	14.5	9.0
CC1(C)CC2CC(C)(CN2C(=O)CSc2nc3ccccc3o2)C1 (centres undefined)	7.0	0.5
CCCn1c(N)c(C(=O)COC(=O)c2cccnc2SC)c(=O)[nH]c1=O	33.5	3.5
CCOc1ccc(NC(=O)CN(C)c2nnnn2-c2ccccc2)cc1OCC	14.0	4.0
Cc1n[nH]c(=O)c2c(NC(=O)COC(=O)C3(c4ccc(Cl)cc4)CCC3)oc(C)c12	22.0	1.0
C=CCn1c(SCC(=O)/C(C#N)=C2\Sc3ccccc3N2C)nc2ccccc2c1=O	4.5	8.5
CC(C)NC(=O)Cn1c(=O)cnc2ccccc21	9.0	2.5
O=C1CC2(CCCC2)C(=O)N1	3.5	-3.0
CC(=O)Nc1ccc(C(=O)COc2ncnc3sccc23)cc1	11.5	15.5
CN(Cc1ccccc1NCC(=O)Nc1ccc2c(c1)OCCO2)C1CCCCC1	-0.5	5.0
CN1N=C(C(=O)Nc2nc(-c3ccccc3Cl)cs2)CCC1=O	8.5	4.5
COc1ccccc1C(=O)COC(=O)CSc1nnc(-c2ccco2)n1Cc1ccccc1	29.0	11.5
COc1cccc(C#N)c1	15.0	5.5
CS(=O)(=O)c1ccc(C2=C(c3ccccc3)C(=O)OC2)cc1	0.0	1.0
c1coc(-c2nc3ccccc3s2)c1	11.5	1.0
